LANA-H2A inh = blockers of LANA interaction with H2A/H2B – biochemical, FP readout, HTS, primary screen | Protein LANA1 (Human herpesvirus 8 type P (isolate GK18)), Q9QR71 | cell-free LANA-H2A/H2B peptide, fluorescence polarization | inhibition, % (concentration not given with the values) | 320,000 compounds, 0.6% hits | AID 2629, 2010; in the data active means inhibition mostly above about 10%, no sharp cut-off; inactive means mostly below about 6.7%;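 further: stock transfer was 7.5 nL into about 10 µL; 0% = median of vehicle wells and 100% = median of positive control wells; one replicate is shown; the record names a cut of 25% in any replicate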
FGF22 binding = binders of human FGF22 protein, primary screen, FGF22 synaptogenesis inhibitor project, biophysical, thermal shift, single point | 340,000 compounds, 1.5% hits | AID 651658, 2012 | recombinant FGF22 thermal shift, SYPRO orange fluorescence; percent of sucrose octasulfate shift, DMSO zero | Fibroblast growth factor 22 (Homo sapiens), Q9HCT0 | calls only at 9.99 µM;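 active means melting point raised past a set limit in the mean and every replicate; three in four hits are not shown here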
ALR inh = inhibitors of human ALR sulfhydryl oxidase, primary screen, biochemical, H2O2 detection, HRP-luminol luminescence, single point; purified ALR, DTT oxidation; inhibition, % (concentration not given with the values); 290,000 compounds, 3.8% hits;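 active means mean and each replicate at 75% or more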;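 further: stock transfer was 7.5 nL into about 7.5 µL; 0% = neutral wells and 100% = wells with inactivated enzyme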
Target sequence (P55789 whole entry, looked up): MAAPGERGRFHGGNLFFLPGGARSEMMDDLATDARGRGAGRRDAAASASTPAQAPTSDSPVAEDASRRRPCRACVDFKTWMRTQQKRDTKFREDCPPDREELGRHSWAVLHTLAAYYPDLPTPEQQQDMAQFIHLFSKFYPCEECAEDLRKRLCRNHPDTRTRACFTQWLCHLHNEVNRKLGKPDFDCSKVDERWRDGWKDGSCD
Beta2AR agonist = beta2AR agonists driving receptor internalization, primary screen, cell-based, FAP fluorogen, flow cytometry; Beta-2 adrenergic receptor (Homo sapiens), P07550; AID 504454, 2011; 340,000 compounds, 0.43% hits; Am2.2-beta2AR cells; reference of the scale not given here; response, % (concentration not given with the values);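 active means response above a set limit, near 3 SD of response in nonfluorescent compounds, cut at about 42% in these data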;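 further: stock transfer was 100 nL into about 11 µL; a reference agonist was the positive control; negative values mostly stem from fluorescent compounds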
Target sequence (P07550 whole entry, looked up): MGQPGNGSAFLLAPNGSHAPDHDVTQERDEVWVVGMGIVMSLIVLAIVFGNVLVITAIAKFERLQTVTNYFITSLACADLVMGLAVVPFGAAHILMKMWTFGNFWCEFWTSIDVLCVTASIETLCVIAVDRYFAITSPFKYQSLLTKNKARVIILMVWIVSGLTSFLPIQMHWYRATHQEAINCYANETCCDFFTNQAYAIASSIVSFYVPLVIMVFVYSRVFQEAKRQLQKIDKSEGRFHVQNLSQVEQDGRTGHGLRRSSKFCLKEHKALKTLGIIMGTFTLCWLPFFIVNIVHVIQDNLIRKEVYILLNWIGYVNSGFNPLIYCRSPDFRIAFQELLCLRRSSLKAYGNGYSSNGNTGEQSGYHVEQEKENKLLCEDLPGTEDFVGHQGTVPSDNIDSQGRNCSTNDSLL
E coli growth = E. coli growth inhibition, primary screen, OD600 | Escherichia coli growth, 23 h; stronger effect = lower value | 330,000 compounds, 0.21% hits | AID 1053175, 2014 | OD600 absorbance (test concentration not listed);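 active means OD600 absorbance below the run mean of sample wells minus 3.6 SD, in any replicate, cut at about 0.56 in these data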;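 further: stock transfer was 300 nL into about 60 µL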
UCH37 DUB inh = inhibitors of human UCH37 deubiquitinase, primary screen, biochemical, Ub-AMC cleavage, fluorescence | Ubiquitin carboxyl-terminal hydrolase isozyme L5 (Homo sapiens), Q9Y5K5 | purified proteasome/UCH37 | inhibition, % (test concentration not listed) | 330,000 compounds, 0.33% hits | AID 588478, 2011;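 active means mean of two replicates above 20%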;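 further: 0% = compound-free wells with enzyme and 100% = wells lacking proteasome; stock transfer was 100 nL into about 20 µL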
Target sequence (Q9Y5K5 whole entry, looked up): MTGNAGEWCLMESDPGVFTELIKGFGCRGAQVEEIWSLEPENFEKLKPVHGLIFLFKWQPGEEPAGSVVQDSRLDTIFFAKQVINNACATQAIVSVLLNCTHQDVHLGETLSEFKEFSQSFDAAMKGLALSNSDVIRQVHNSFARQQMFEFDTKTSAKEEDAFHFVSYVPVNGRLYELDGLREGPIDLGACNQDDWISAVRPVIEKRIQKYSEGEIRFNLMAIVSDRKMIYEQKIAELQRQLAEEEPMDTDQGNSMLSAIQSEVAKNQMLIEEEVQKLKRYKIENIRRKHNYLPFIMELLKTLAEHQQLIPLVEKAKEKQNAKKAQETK
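System: Proteasome-associated human UCH37 deubiquitinase; Input: 0.15 nM proteasome in added enzyme buffer; Also added: Ub-AMC substrate from 1 µM stock; Incubation: 30 min compound-proteasome preincubation then 25 min substrate reaction, room temperature; Detection: fluorescence, ex 355 nm, em 460 nm; Read-out: % inhibition of Ub-AMC cleavage fluorescence; Benchmarks: no-proteasome and no-compound wells.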
HNF4A DNA FP = change in binding of human HNF4A to DNA, primary screen, biochemical, fluorescence polarization, FITC-DNA. 1 h. activity change, % at 10 µM. AID 1224865, 2016. 360,000 compounds, 0.3% hits; in the data active means activity change above about 30%, passing the limit was not always enough;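 further: controls were the assay level and a saturating level of protein; the project sought stronger binding though the title names inhibitors; some compounds called inactive have numbers as strong as hits; positive values seem to mean higher polarization but the record does not say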
Starred values were filed as active, the others as inactive; i = inactive; . = no result given. This is a subset; count on the stated rates, not on these rows.

SMILES	LANA-H2A inh	FGF22 binding	ALR inh	Beta2AR agonist	E coli growth	UCH37 DUB inh	HNF4A DNA FP
O=C(O)C(Cc1ccccc1)N1C(=O)c2ccccc2C1=O (centres undefined)	-4.8	.	.	-3	0.71	4.4	4.4
COc1ccc(-c2c(-c3ccccc3OC)sc3ccccc23)cc1OC	2.3	i	-5	2	0.7	2.9	2.5
O=C(Nc1ccc(N2CCN(Cc3ccccc3F)CC2)cc1)c1ccc([N+](=O)[O-])o1	-0.9	i	-18	-3	0.71	1.0	-0.7
Cc1cc(C)n(/N=C/c2ccccc2)c(=O)c1C#N	1.8	.	1	-13	.	.	-0.1
O=C(Nc1ccccc1C(=O)N1CCN(CCO)CC1)c1cccc([N+](=O)[O-])c1	0.9	i	-6	-10	0.68	-0.2	1.8
CCOC(=O)c1c(C)oc2ccc(O)c(CN(C)C)c12	0.3	.	13	-4	0.69	2.9	0.8
Cc1nc(N)c(C#N)c(-c2ccccc2Cl)c1C	1.1	.	-5	8	0.72	-6.2	2.4
N#Cc1ccccc1S(=O)(=O)N1CCN(Cc2c(O)ccc3ccccc23)CC1	0.4	i	.	3	.	.	-1.8
CCOC(=O)Cn1c(C(=O)OCC)cc2sccc21	-7.3	.	-1	3	0.64	1.6	-0.6
COC(=O)c1c(NC(=O)Cn2cnc([N+](=O)[O-])n2)sc2c1CCC(C)C2 (centres undefined)	1.0	.	-55	-1	0.68	5.7	1.8
COCC(C)n1c(C)cc(C(=O)COC(=O)CN=C2NS(=O)(=O)c3ccccc32)c1C (centres undefined)	-2.8	i	-1	5	0.68	2.1	6.2
Cc1ccccc1S(=O)(=O)Cc1ccc(C(=O)N2CCN(c3cccc(C)c3C)CC2)o1	-2.3	.	-18	17	0.74	0.1	-0.1
CC(=O)Nc1ccc(N=Nc2c(C)[nH]n(C(N)=S)c2=O)cc1	2.1	i	41	-2	0.73	4.3	1.8
Cc1ccc(NC(=O)COC(=O)CSC(=S)N2CCOCC2)cc1	0.4	i	98*	11	0.71	3.4	-1.5
O=C(CCN1C(=O)C2C3C=CC(C4CC34)C2C1=O)Oc1ccccc1 (centres undefined)	0.4	.	0	3	0.69	1.5	3.8
COc1ccc(S(=O)(=O)N(C)C[C@H]2Oc3c(NC(=O)Nc4c(C)noc4C)cccc3C(=O)N([C@@H](C)CO)C[C@H]2C)cc1	1.8	i	.	2	0.72	5.4	0.5
O=C(CN1CCOCC1)Nc1ncc(Cc2cccc(Cl)c2)s1	5.1	i	-8	0	0.69	-0.9	3.2
Cc1oc(C(C)(C)C)c(CN2CCCC2)c1C(=O)O	2.1	.	-1	3	0.71	4.2	-0.3
O=C(CNC(=S)N(Cc1ccccc1Cl)C1CCCC1)NCCCN1CCOCC1	-0.8	i	.	0	0.72	3.2	-0.8
O=C(NNC(=O)c1ccc(Br)o1)c1ccc(NS(=O)(=O)c2cccs2)cc1	.	i	.	-2	0.64	5.2	-0.7
CCC1CCc2sc(C(=O)O)cc2C1 (centres undefined)	0.9	.	.	0	0.73	-0.5	2.6
S=c1nc(C2CCCCC2)[nH][nH]1	-4.8	.	-3	7	0.7	1.9	-1.4
Cc1nc2ccc(Cl)cc2c(-c2ccccc2F)c1CC(=O)O	-4.0	i	.	6	0.7	-0.3	0.5
O=C(O)C1CCCCC1C(=O)NCCc1ccc(F)cc1 (centres undefined)	-18	i	-5	3	0.7	4.6	-0.4
CCN(C(=O)Cc1ccc(NC2=NC3CS(=O)(=O)CC3S2)cc1)c1ccccc1 (centres undefined)	0.3	i	.	2	0.75	1.3	-2.1
Cc1ccc(N(CC(=O)Nc2ccc(C)cc2C)S(=O)(=O)N2CCCC2)cc1	0.5	.	-3	9	0.71	1.5	2.8
COCCCNC(=O)Cn1ncc2ccsc2c1=O	4.9	i	14	1	0.7	0.5	3.3
Cc1ccccc1COCCN1CCN(S(=O)(=O)c2ccccc2)CCC1=O	-0.8	i	-2	0	0.71	0.4	0.5
CCOC(=O)CSC1=C(C#N)C(c2ccc(C)cc2)C2=C(CCCC2=O)N1 (centres undefined)	5.2	.	-6	10	0.73	-5.5	2.4
O=[N+]([O-])c1ccccc1CN1CCN(Cc2c[nH]c3ccccc23)CC1	-2.8	i	-3	.	0.67	3.7	.
O=C(C[n+]1cc(-c2ccccc2)n2c1CCC2)Nc1nc(-c2ccc(F)cc2)cs1	-4.1	.	-10	-3	0.64	2.6	4.9
CCOC(=O)C1C(=O)CC(C)(O)C(C(=O)OCC)C1/C=C/c1ccccc1 (centres undefined)	82*	.	.	-3	0.75	-0.2	0.5
Cc1cc(C)nc(N(C#N)CCOc2ccc(Cl)cc2)n1	1.0	.	-7	-3	0.7	2.4	2.2
Cc1ccccc1OCC(=O)NCCc1nc2ccccc2[nH]1	0.8	i	99*	0	0.67	3.3	0.3
O=C(O)CCCC(=O)N1CCOCCOCCOCCOCC1	-0.2	i	-3	2	0.69	0.1	2.0
O=C(NCCc1ccccc1)c1cccc(N2CCCC2=O)c1	2.9	.	-1	2	0.65	-0.2	2.7
Cc1cccc(C)c1NS(=O)(=O)c1cc2c3c(c1)CCN3C(=O)CC2	-2.0	i	-3	-2	0.62	0.1	0.3
O=C1CC(=O)N(Cc2cccs2)C(=O)N1	1.5	.	3	5	0.71	4.9	6.5
O=C(NCCCN1C(=O)c2ccccc2C1=O)OCc1ccccc1	.	i	.	-5	0.64	-0.6	1.4
CNC(=O)c1[nH]cnc1C(=O)N[C@@H](CC(C)C)C(=O)OCc1ccccc1	0.2	.	5	1	.	5.2	0.9
CCC(CCC(=O)Nc1cccc([N+](=O)[O-])c1)C(=O)O (centres undefined)	1.7	i	0	-10	0.73	4.8	-3.7
COc1ccc(C(c2nnnn2CCc2ccccc2)N2CCN(C3CCCC3)CC2)cc1 (centres undefined)	3.8	.	4	-8	0.73	2.2	2.3
Cc1ccc(C)c(NC(=O)c2nnn(Cc3ccccc3C)c2N)c1	-0.3	.	-4	7	0.71	2.4	-2.1
O=C(CNC(=O)c1ccco1)N=Nc1c(O)[nH]c2ccc(Br)cc12	1.5	i	-1	-7	0.59	5.6	4.9
CN(C(=O)CSc1ncccn1)C1CCS(=O)(=O)C1 (centres undefined)	5.5	i	.	-1	0.66	-0.9	1.6
O=S(=O)(NCc1ccccc1)c1cccc2nonc12	-6.7	.	99*	-1	0.73	4.2	4.4
COc1ccc(C=O)cc1Cn1c(C)cc(C)c(C#N)c1=O	-1.0	i	-3	-5	0.72	-0.7	-1.4
N=c1c2c(ncn1CCCO)Oc1ccc3ccccc3c1C2c1ccccc1 (centres undefined)	-4.5	i	-12	11	0.65	2.6	-1.8
O=C(Nc1ccc(Br)cc1)NC1CCCCCCC1	-1.5	i	3	4	0.68	4.4	-0.4
CSc1ccc(C(=O)Nc2cc(S(=O)(=O)N3CCOCC3)ccc2N2CCOCC2)cc1[N+](=O)[O-]	.	i	.	8	0.7	5.7	-1.1

Printed as active in LANA-H2A inh, among the entries above:
SMILES | LANA-H2A inh | ALR inh | Beta2AR agonist | UCH37 DUB inh | HNF4A DNA FP
CCOC(=O)C1C(=O)CC(C)(O)C(C(=O)OCC)C1/C=C/c1ccccc1 (centres undefined) | 82* | . | -3 | -0.2 | 0.5

Carrying on.
SMILES	LANA-H2A inh	FGF22 binding	ALR inh	Beta2AR agonist	E coli growth	UCH37 DUB inh	HNF4A DNA FP
Cc1cc(N2CCN(C/C=C/c3ccccc3)CC2)n2ncnc2n1	10	.	-3	-10	0.68	-0.9	-0.3
Cc1ccc2cc(C)c(SCC(=O)NCC3CCCO3)nc2c1 (centres undefined)	-2.2	i	.	-3	0.66	4.3	0.0
COc1ccc(OC(C)C(=O)N2CCC(C)CC2)cc1 (centres undefined)	2.9	.	-9	6	0.69	2.1	-5.8
COc1ccccc1NC(=O)C(C)OC(=O)c1nc2nc(C)cc(C)n2n1 (centres undefined)	.	i	.	-3	0.7	0.0	1.8
Cc1nc(NC(=O)CC(C)C)sc1-c1csc(Nc2ccc(Cl)cc2)n1	1.3	i	-4	28	0.72	-3.6	-1.3
O=C1CC(Cc2ccccc2)C(=O)N1c1ccccn1 (centres undefined)	2.2	i	-9	-3	0.7	4.9	-0.4
N#C/C(=C\c1ccc[nH]1)S(=O)(=O)c1ccccc1	3.0	i	-4	-12	0.66	11	4.9
O=c1cc(SCc2ccc(Cl)cc2Cl)nc[nH]1	.	i	.	5	0.68	1.4	0.5
O=C(Cn1c(=O)[nH]c2ccccc2c1=O)Nc1cccnc1	7.3	i	0	-7	0.69	-1.1	0.8
CCNC(=S)NS(=O)(=O)c1ccccc1	-1.3	.	4	-2	0.7	-0.7	0.9
O=C(CSCc1ccc(F)cc1)NCc1ccco1	2.4	.	8	-1	0.73	5.2	4.0
Cc1ccc(NC2=NC(c3ccc(F)cc3)n3c(nc(C)cc3=O)N2)c(C)c1 (centres undefined)	3.6	i	-8	-1	0.66	0.4	4.3
Cn1c(=O)c2c(nc(CN3CCN(c4ccccc4F)CC3)n2CCCc2ccccc2)n(C)c1=O	5.7	.	1	-2	0.69	1.7	-1.7
CC(C)C(=O)Nc1ccc(NC(=O)c2ccc(COc3ccccc3)cc2)cc1	0.5	i	.	-8	0.69	-1.1	3.2
Cc1ccc2cc(CN(Cc3ccco3)C(=S)NCC3CCCO3)c(=O)[nH]c2c1C (centres undefined)	0.0	i	-1	-11	0.7	2.1	-0.2
CCn1c2c(c(=N)c3ccccc31)CCC2	-3.1	i	-13	-2	0.62	-4.2	-3.6
O=C(Nc1ccccc1)c1ccc(S(=O)(=O)NCC2CCCO2)cc1 (centres undefined)	-3.1	.	-3	7	0.67	2.5	-0.1
Cc1sc2nc(SCc3nc4ccccc4[nH]3)n(Cc3ccco3)c(=O)c2c1C	-1.8	i	1	4	0.68	-2.8	0.1
COc1ccc(C(=O)CSc2nnc(CNC(=O)c3ccccc3)n2C)cc1	1.2	i	.	-3	0.66	-0.2	2.1
CCN(CC)C(=O)CSc1nc2c(sc(=S)n2-c2ccccc2)c(=O)n1-c1ccccc1OC	.	i	.	16	0.66	8.5	-0.3

Results in Beta2AR agonist, for 3 of the compounds above:
SMILES | Beta2AR agonist
Cc1sc2nc(SCc3nc4ccccc4[nH]3)n(Cc3ccco3)c(=O)c2c1C | 4
CCn1c2c(c(=N)c3ccccc31)CCC2 | -2
COc1ccc(C(=O)CSc2nnc(CNC(=O)c3ccccc3)n2C)cc1 | -3

More entries.
SMILES	LANA-H2A inh	FGF22 binding	ALR inh	Beta2AR agonist	E coli growth	UCH37 DUB inh	HNF4A DNA FP
Cc1cc(NS(=O)(=O)c2ccc(NC(=S)NC(=O)c3ccc(Br)cc3)cc2)no1	.	i	.	3	0.68	5.2	0.9
O=C(c1cccnc1)N1CCN(c2c(Cl)cccc2[N+](=O)[O-])CC1	5.3	.	-2	-3	0.72	-0.6	0.1
CCOC(=O)N1CCC(NC(=O)c2ccc(CS(=O)c3cccc(C)c3)o2)CC1 (centres undefined)	1.3	i	10	7	0.69	3.5	0.8
Cc1cccc(-n2cc[nH]c2=S)c1C	-1.6	i	.	-10	0.67	-0.6	-7.4
CC(=O)c1c(O)cc(=O)oc1-c1ccc(C)cc1	2.2	i	-1	-3	0.63	3.8	1.2
O=C(N/N=C/c1cccc(C(F)(F)F)c1)c1cc2c(s1)-c1ccccc1CC2	-4.7	.	11	-2	.	.	-0.7
O=C(Nc1ccc(S(=O)(=O)N2CCCCC2)cc1)c1ccccc1Cl	-0.7	.	.	5	0.67	-0.2	-0.6
